BJeLR viability: BJeLR cell viability loss; BJeLR (HRASV12) viability, CellTiter-Glo ATP luminescence, 48 h; reference of the scale not given here; 300,000 compounds, 0.17% hits; AID 1554; inhibition, % (concentration not given with the values);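 active means replicate mean above 50%; inconclusive means above 50% but judged a plate artefact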;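 further: 50 nL library stock added to about 25 µL; numbers are from one replicate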
PrP 5UTR inh: inhibition of PrP 5' UTR reporter expression | cell-based PrP 5' UTR mRNA reporter, plate reader | inhibition, % (no concentration beside the values) | 340,000 compounds, 0.35% hits;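 active means every replicate at 50% or more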;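 further: 0 = median of the neutral control wells; tested in H4 reporter cells; numbers are from one replicate; inactives centre near -14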
Mtb hypoxia rep: inhibitors of hypoxia-regulated fluorescent reporter in Mycobacterium tuberculosis; AID 1159583; M. tuberculosis hypoxia-regulated fluorescent reporter, fluorescence; 300,000 compounds, 0.1% hits; fluorescence inhibition, % (test concentration not listed);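 active means 35 to 45% if threefold the growth effect, above 45% if 1.5-fold the growth effect; inactive means the rest, general growth blockers included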;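 further: wells of about 50 µL received 100 nL stock; 0% = vehicle wells and 100% = reference inhibitor wells; whole bacteria with a GFP reporter of the hypoxia response; strong numbers were not always called active; many hits fall short of the cut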
Bead autofluor: counter-screen for toxin protease inhibitors: compound fluorescence. 360,000 compounds, 3.1% hits. compound autofluorescence counterscreen, microsphere flow cytometry; stronger effect = higher value. fluorescence intensity (concentration not given with the values);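 active means at least 3 SD above the mean of all compounds, about 16000 in these data; inconclusive means too few beads counted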;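 further: 100 nL of 1 mM stock went into each well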
RN4220 kill: S. aureus RN4220 growth inhibition | inhibition, % (test concentration not listed) | 330,000 compounds, 0.33% hits | OD600, 16 h;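 active means z-score of -3 or lower and OD600 up to 0.18 on both plates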;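 further: plate controls were untreated cells for no effect and reference antibiotic for full effect; stock transfer was 100 nL into about 80 µL; one replicate is shown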
Sa ugtP lethal: compounds lethal to S. aureus RN4220 ugtP deletion mutant. OD600 growth, 16 h; some inactives read as strong as hits. growth inhibition, % (test concentration not listed). 330,000 compounds, 0.54% hits. AID 1259309;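 active means z-score under -3 and OD600 up to 0.15 on both plates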;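 further: plate controls were untreated wells for no effect and antibiotic for full effect; wells of about 80 µL received 100 nL stock; the first replicate is given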
Mtb hypoxia rep growth: also measured in Mtb hypoxia rep; calls as there; growth inhibition, %; measured here: M. tuberculosis growth (absorbance);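 0% = vehicle and 100% = reference antibiotic; read after six days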
* = called active by the depositor; ? = inconclusive; . = not tested or not shown.

SMILES	BJeLR viability	PrP 5UTR inh	Mtb hypoxia rep	Mtb hypoxia rep growth	Bead autofluor	RN4220 kill	Sa ugtP lethal
O=C(Nc1cccc(S(=O)(=O)NC2=NCCC2)c1)C1CCCCC1	-9	2	3	13	4569	3.1	12
NC(=S)Nc1cccc(-c2n[nH]c(=S)o2)c1	5	-9	-4	-3	6686	-3.8	1
Cc1cccc(C)c1-n1c(C)cc(/C=C2\C(=O)NN(c3ccccc3)C2=O)c1C	0	-15	-1	1	15571	2.3	-1
C/C(=N\OCc1ccc(C#N)cc1)c1ccc(S(=O)(=O)N(C)C)cc1	0	-35	.	.	3800	.	.
Cc1ccc(NC(=O)OCc2ccccc2S(C)=O)cc1 (stereo not given)	4	-36	4	0	5007	5.7	9
CCN(CC)CCCOc1ccc(C)cc1Br	2	-12	.	.	3196	1.4	8
COc1cccc(NC(=O)CSc2nnc(-c3ccoc3C)n2C)c1	2	-16	16	10	4990	1.2	5
CC1(C2(O)CCCCC2)NCCc2ccccc21 (stereo not given)	.	-6	3	8	6326	2.3	5
CC(C)C[C@H](NC(=O)N1CC(=O)Nc2ccccc21)C(=O)N[C@H](Cc1c[nH]c2ccccc12)C(=O)O	-5	-12	.	.	5788	3.7	11
N#CCSCC(=O)Nc1ccc(F)cc1	-8	-11	6	5	9778	3.5	5
S=C(NCCC1=CCCCC1)Nc1ccccc1	-3	-53	20	31	3357	0.8	-12
Cc1ccn(CC(=O)N2CCCC(C(=O)c3cccc4ccccc34)C2)n1 (stereo not given)	4	12	7	21	4509	5.5	4

A few values from the list:
Value of NC(=S)Nc1cccc(-c2n[nH]c(=S)o2)c1 under PrP 5UTR inh: -9
Value of CC(C)C[C@H](NC(=O)N1CC(=O)Nc2ccccc21)C(=O)N[C@H](Cc1c[nH]c2ccccc12)C(=O)O under Sa ugtP lethal: 11
Value of C/C(=N\OCc1ccc(C#N)cc1)c1ccc(S(=O)(=O)N(C)C)cc1 under BJeLR viability: 0
Value of S=C(NCCC1=CCCCC1)Nc1ccccc1 under Bead autofluor: 3357

Additional entries follow.
SMILES	BJeLR viability	PrP 5UTR inh	Mtb hypoxia rep	Mtb hypoxia rep growth	Bead autofluor	RN4220 kill	Sa ugtP lethal
O=C(N/N=C/c1ccc(O)c(O)c1)c1cccc(S(=O)(=O)N2CCCC2)c1	11	-5	.	.	4725	.	.
CCOc1ccccc1NC(=O)c1ccc2c(c1)C(=O)N(CC1CCCO1)C2=O (stereo not given)	4	7	7	-5	4502	1.6	14
CC(C)Oc1ccc(C(CC(=O)O)NC(=O)C2CCCCC2)cc1 (stereo not given)	-3	-7	.	.	2790	0.8	3
CC(Oc1ccc(Cl)cc1Cl)C(=O)NCCN1CCOCC1 (stereo not given)	0	-74	-1	3	9737	4.7	-6
CC12C(=O)N(c3cccc(OC(=O)c4ccco4)c3)C(=O)C1C1c3ccccc3C2c2ccccc21 (stereo not given)	-9	-24	7	9	6088	-2.3	-18
COc1ccc(N(C(C)C(=O)N/N=C/c2ccc(OC(C)C)cc2)S(C)(=O)=O)cc1 (stereo not given)	-12	-26	.	.	9541	.	.
CCn1c(=O)c(C(=O)CN(C)CC(=O)Nc2cccc(F)c2)c(N)n(Cc2ccccc2)c1=O	.	-3	13	4	4291	0.7	-1
Cc1[nH]c2ccccc2c1C(=O)C(=O)N1CCOCC1	-1	-20	5	7	6545	2.9	5
COC(=O)NN=Cc1cccc(OC(=O)c2ccc3c(c2)OCO3)c1	.	.	4	5	.	4.9	0
CC(=O)Nc1ccc(NC(=S)NC(=O)c2ccc(-c3ccccc3)cc2)cc1	-11	.	1	4	?	13	-11
COc1ccccc1NC(=S)N/N=C/c1ccc(O)cc1	13	-60	.	.	1998	.	.
O=C(C1CC(=O)N(C2CCCC2)C1)N1CCN(c2cccc(C(F)(F)F)c2)CC1 (stereo not given)	.	-8	12	6	5865	-2.2	1

4 entries drawn at random from the list so far:
SMILES	BJeLR viability	PrP 5UTR inh	Mtb hypoxia rep	Mtb hypoxia rep growth	Bead autofluor	RN4220 kill	Sa ugtP lethal
COC(=O)NN=Cc1cccc(OC(=O)c2ccc3c(c2)OCO3)c1	.	.	4	5	.	4.9	0
Cc1[nH]c2ccccc2c1C(=O)C(=O)N1CCOCC1	-1	-20	5	7	6545	2.9	5
CC12C(=O)N(c3cccc(OC(=O)c4ccco4)c3)C(=O)C1C1c3ccccc3C2c2ccccc21 (stereo not given)	-9	-24	7	9	6088	-2.3	-18
COc1ccc(N(C(C)C(=O)N/N=C/c2ccc(OC(C)C)cc2)S(C)(=O)=O)cc1 (stereo not given)	-12	-26	.	.	9541	.	.

Later entries:
SMILES	BJeLR viability	PrP 5UTR inh	Mtb hypoxia rep	Mtb hypoxia rep growth	Bead autofluor	RN4220 kill	Sa ugtP lethal
N#Cc1ccc(Cl)cc1NC(=O)CNCc1cccs1	-8	-35	17	8	3696	-2.4	-2
O=C(NC1CCCCC1)C1CC(=O)N(Cc2ccccc2)C1 (stereo not given)	2	-12	1	-1	6168	0.8	7
Cc1cc(CNC(=O)COc2c(F)c(F)cc(F)c2F)c2ccccc2n1	11	-29	-1	0	2738	3.2	-6
Cc1ccc2[nH]c(=O)c(CN(CCCO)S(=O)(=O)c3c(C)ccc4nsnc34)cc2c1	8	-19	-3	0	10512	1.4	-1
Cc1ccc(C(=O)N2CCN(c3ccc(N4CCOCC4)nn3)CC2)cc1	9	-14	7	7	4117	0.6	0
COCCN(CCOC)Cc1c(O)ccc2c1O/C(=C\c1ccc(C)o1)C2=O	0	-49	-2	7	3906	2.5	-3
COCc1cc(C)nc(SCc2ccccc2)c1C#N	-5	-10	6	1	4660	3.1	15
CC1CCN(C(=O)c2ccccc2NS(=O)(=O)c2ccccc2)CC1	4	-8	-1	0	4237	4.2	2
CC1=NN(C(=O)c2ccc(Cn3nc(C)c([N+](=O)[O-])c3C)cc2)C(O)(C(F)(F)F)C1 (stereo not given)	-1	-22	4	-4	7883	-1.1	8
Cn1c(SCC(=O)Nc2sc3c(c2C#N)CCC3)nnc1C1COc2ccccc2O1 (stereo not given)	-7	-13	-10	10	5595	2.6	-19
COc1ccccc1-c1ccc(=O)n(CC(=O)NCc2ccc3c(c2)OCO3)n1	-16	11	1	6	22769*	-1.1	-10
CCOC(=O)c1ccccc1NC(=O)c1c(N)n(C)c(=O)[nH]c1=O	15	.	9	1	.	3.2	-7
COc1ccc(CNS(=O)(=O)c2ccc(-n3cccn3)cc2)cc1	-4	-7	5	-2	6176	2.1	0
N#C/C(=C\C1=C(N2CCOCC2)C(=C/c2cccc([N+](=O)[O-])c2)/CC1)C(=O)Nc1ccccc1F	.	-8	2	0	3183	-3.2	-21
CCc1cc2ccc(OC)cc2nc1SCC(=O)N1CCN(C(=O)c2ccco2)CC1	29	-19	13	8	4624	16	2
O=C(c1ccco1)N1CCN(CC(=O)N2CCCc3c2c(=O)oc2ccc(O)cc32)CC1	0	.	-4	-8	.	-2.5	2
Cc1nn(-c2ccccc2)c2[nH]c(=O)c(CNc3ccc4c(c3)OCCO4)cc12	-2	-18	.	.	?	7.9	4
COc1cccc(N2CC(=O)N(NC(=O)c3sc4nc(C)cc(C)c4c3N)CC2=O)c1	0	-11	-5	-7	4446	1.0	0
O=C(NC(=S)N1CCCCCC1)c1ccccc1	9	-7	-1	2	5014	1.2	2
Cc1ccc(C=NN(C)S(=O)(=O)c2ccc(C)cc2)cc1	.	.	-2	-3	.	1.1	7
Nc1[nH]nc2nc(N3CCCC3)nc(-c3ccccc3)c12	-10	8	16	16	4220	1.4	24
O=C(NNC(=O)C1CC2CCC1C2)c1ccccc1 (stereo not given)	3	-17	5	12	2526	2.6	-4
N#CC(=Cc1ccc(N2CCCCC2)o1)C(=O)Nc1ccc2ccccc2c1	.	.	-54	-18	.	-3.2	2
O=C(CCN1C(=O)C2C3C=CC(C3)C2C1=O)N1CCN(c2ccccn2)CC1 (stereo not given)	.	-16	-1	1	11156	2.4	2
CC1CCC(NC(=O)C2COc3ccccc3O2)CC1 (stereo not given)	14	-27	.	.	?	2.5	7
Cc1ccc(S(=O)(=O)NCCC(=O)NCc2ccc(Cl)cc2)cc1C	.	-24	11	3	4144	5.7	3
CC(=O)Nc1ccc(S(=O)(=O)N(C)c2ccc(OCCOc3ccccc3F)cc2)cc1	.	4	-6	-2	6783	1.7	-4
C/C(=N/NC(=S)Nc1cccc(C)c1)c1cccc([N+](=O)[O-])c1	5	-10	.	.	2479	.	.
COc1cc(-c2ccccc2)nc2ccccc12	8	-30	.	.	2559	5.3	6
O=C(N/N=C/c1cccc([N+](=O)[O-])c1)c1nc2ccccc2c(=O)[nH]1	6	-41	.	.	4804	.	.
Cc1nn(-c2nc3ccccc3s2)c(N)c1Sc1ccc(F)cc1	3	-93	4	4	5661	-3.8	-11
COc1ccc(Cc2nnc(SCC(=O)NC3CCCC3)o2)cc1	4	-7	14	12	3823	0.2	4
CCOc1ccccc1C(=O)NN=Cc1coc2ccc(Cl)cc2c1=O	.	.	2	2	.	2.8	3
CC1CN(C(C)CO)C(=O)c2cccc(NC(=O)NC3CCCCC3)c2OC1CN(C)C(=O)Nc1ccccc1 (stereo not given)	.	.	11	10	.	3.2	-10
O=C(Cn1sc2ccccc2c1=O)N1CCN(C(=O)c2ccco2)CC1	-2	-21	-1	-4	4792	3.6	10
Cc1c(/C=N/NC(=O)c2cc(=O)[nH]c(=O)[nH]2)c2ccccn2c1C(=O)c1ccccc1	17	5	.	.	19024*	.	.
CC1CC(C)CN(C(=O)Nc2ccccc2F)C1 (stereo not given)	-4	-8	6	11	5550	4.0	-3
Cc1cc(S(=O)(=O)N2CCCOC2CNC(=O)C(=O)NCc2ccco2)ccc1F (stereo not given)	-1	-1	1	6	1967	-1.7	-9
O=C(COC(=O)C1CCC1)Nc1cccc(S(=O)(=O)N2CCOCC2)c1	6	-7	2	-6	3697	-0.1	1
COc1ccc(CNc2ncnc3sccc23)cc1OC	2	-22	2	-6	5422	2.2	2
COc1ccc(CCNC(=S)NNC(=O)c2c(Br)c(C)nn2C)cc1OC	-1	-1	2	2	4916	3.3	0
CC(=O)c1ccc(NC(=O)c2cccc(N3C(=O)c4ccccc4C3=O)c2)cc1	10	-12	-2	-2	4216	0.1	-5
C=CCn1c(SCC(=O)c2cccs2)nc2sc(CC)cc2c1=O	9	-5	18	11	22827*	3.9	-7
Cc1cc(C)nc(NS(=O)(=O)c2ccc(NC(=O)c3ccc4c(c3)OCO4)cc2)n1	-1	-3	-1	5	2501	-0.6	7
O=C(COc1ccc(Br)cc1Cl)N1CCN(c2ncccn2)CC1	.	-1	4	3	2736	0.2	2
Cc1ccc(NC(=O)C2CCC(CNC(=O)[C@@H]3Cc4ccccc4CN3)CC2)cc1 (stereo not given in full)	3	-16	7	-2	4237	4.1	13
O=C(CCCc1ccccc1)NCCN1CCOCC1	-2	-8	5	-6	?	1.0	6
Cn1nc(CC(=O)NCc2ccc(F)cc2)c2ccccc2c1=O	-1	3	9	2	5926	6.4	8
COc1ccc(Cl)cc1NC(=O)CCc1ccccc1	7	-12	6	0	3100	3.5	-9
O=C(Nc1ccc2snnc2c1)N1CCCCC1	2	-14	-9	-26	2051	-1.9	6
CCNC(=S)Nc1cc(C(=O)N2CCCC2)ccc1N1CCCC1	-6	-33	10	11	3324	7.2	9
CCN1C(=O)C2(C(C(=O)c3cc4ccccc4o3)=C(O)C(=O)N2CCCN2CCOCC2)c2ccccc21 (stereo not given)	-6	-16	11	3	6531	3.7	11
Cc1cc(N)nc(C)c1C#N	-2	-30	-3	4	2549	0.9	8
CCC(Sc1nnc(-c2ccc(C)c(Cl)c2)n1CC)C(=O)Nc1nccs1 (stereo not given)	.	-9	5	4	3279	6.9	5
CN1CCN(c2nc3c(c(=O)n(C)c(=O)n3C)n2Cc2ccccc2)CC1	-15	-9	2	0	2827	2.3	15
CCOC(=O)Cn1cc(C=O)c2ccccc21	-11	-10	5	13	9919	-4.3	-1
CC1CC(C)CN(C(=O)CNC(=O)Cn2ccc3ccccc3c2=O)C1 (stereo not given)	4	-14	-7	7	4234	5.1	7
CC(=O)c1cccc(S(=O)(=O)N(C)C2CCN(C)CC2)c1	1	-17	0	6	4072	5.1	1
COc1ccc(-n2ccn(CC(=O)Nc3ccccc3OC)c(=O)c2=O)cc1	5	-8	-3	-2	4444	-1.9	-1
Cc1ccc(S(=O)(=O)n2cnc3cc([N+](=O)[O-])ccc32)c(C)c1	0	-13	-16	-12	2677	-3.5	1
COc1cc(NC(=S)NC2CC(C)(C)NC(C)(C)C2)c(OC)cc1Cl	-6	-18	4	12	2011	-2.3	-5
COc1ccccc1CNC(=O)c1ccc(S(=O)(=O)N(C)C)cc1	6	-30	1	-4	15851	0.9	2
